PriA SSB inh: inhibitors of Klebsiella pneumoniae PriA binding to SSB C-terminal tail, primary screen, biochemical, AlphaScreen; PriA–SSB C-terminal tail interaction (Klebsiella pneumoniae); AlphaScreen SSBct-PriA binding, biotinylated peptide; inhibition, % at 33 µM; 430,000 tested, 0.6% active; AID 1272365, 2023; in the data active = inhibition mostly above about 37%, no sharp cut-off; inactive = mostly below about 20%;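 note: plate controls were negative control peptide for no effect and reference peptide for full effect; strong numbers were not always called active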
PfHsp40 rescue: rescue of yeast from PfHsp40 toxicity, primary screen, S. cerevisiae, ATP luminescence | 340,000 tested, 0.68% active | AID 504582, 2011 | growth rescue, % at 12.5 µM | S. cerevisiae expressing PfHsp40, growth rescue; in the data active = growth rescue above about 28%, passing the limit was not always enough;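 note: yeast W303a lacking pdr1 and pdr3 grown in galactose medium; growth measured after three days at 30 °C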
DUSP3 inh: VHR1 phosphatase inhibitors, primary screen, biochemical, absorbance, uHTS. Dual specificity protein phosphatase 3 (Homo sapiens), P51452. recombinant VHR phosphatase, pNPP absorbance. inhibition, % at 13.3 µM. 290,000 tested, 0.52% active. AID 1654, 2009; in the data active = inhibition above about 50%; note: some compounds called inactive have numbers as strong as hits
Target sequence (P51452 whole entry, looked up): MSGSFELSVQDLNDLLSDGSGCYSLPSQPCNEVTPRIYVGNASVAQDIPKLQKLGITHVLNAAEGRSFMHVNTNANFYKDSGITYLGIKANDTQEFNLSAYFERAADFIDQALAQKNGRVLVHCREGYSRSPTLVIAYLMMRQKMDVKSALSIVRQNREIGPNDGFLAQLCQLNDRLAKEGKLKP
BH1578 lux ind: inducers of Vibrio cholerae quorum light production without autoinducers, primary screen, BH1578 luxS cqsA deficient, single point; V. cholerae BH1578 lux reporter, luminescence, 6 h; activation, % at 18.7 µM; 350,000 tested, 0.16% active; AID 588436, 2011; in the data active = activation mostly above about 9.7%, no sharp cut-off; note: not every result past the cut was called active; inactives centre near 0; reference of the scale not given here
TcdB inh: TcdB glycohydrolase inhibitors, primary screen, biochemical, single point, plate reader | TcdB glycohydrolase enzymatic assay | inhibition, % at 9.99 µM | Toxin B (Clostridioides difficile), P18177 | AID 652162, 2013 | 350,000 tested, 0.24% active; in the data active = inhibition above about 10%
Yp Topo-I inh: Yersinia pestis topoisomerase I inhibitors, primary screen, biochemical, cleavage product accumulation, plate reader, single point; DNA topoisomerase I (Yersinia pestis CO92); Y. pestis Topo-I cleavage product accumulation; activity, % at 10 µM; 360,000 tested, 0.064% active; AID 504884, 2011; in the data active = activity above about 50%, passing the limit was not always enough; note: inactives centre near 2
Rv3671c protease: Rv3671c serine protease inhibitors, primary screen, biochemical, fluorescence polarization, M. tuberculosis H37Rv | AID 2606, 2010 | P9WHR9 | 320,000 tested, 0.048% active | inhibition, % at 5.96 µM; in the data active = inhibition above about 38%;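 note: extracellular domain of Rv3671c used as enzyme; 0% = enzyme with DMSO and 100% = no enzyme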
Target sequence (P9WHR9 whole entry, looked up, the tested form may be a part): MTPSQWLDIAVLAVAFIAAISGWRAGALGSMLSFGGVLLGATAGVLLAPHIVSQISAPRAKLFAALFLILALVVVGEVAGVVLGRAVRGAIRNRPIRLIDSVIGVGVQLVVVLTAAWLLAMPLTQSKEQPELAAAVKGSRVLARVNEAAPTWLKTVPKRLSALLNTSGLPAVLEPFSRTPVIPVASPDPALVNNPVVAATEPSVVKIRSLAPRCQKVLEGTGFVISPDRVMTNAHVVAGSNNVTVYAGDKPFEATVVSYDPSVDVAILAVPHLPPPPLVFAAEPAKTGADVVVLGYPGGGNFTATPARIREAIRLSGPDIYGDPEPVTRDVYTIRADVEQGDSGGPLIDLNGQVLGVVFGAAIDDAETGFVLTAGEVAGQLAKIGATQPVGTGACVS
MazEF act: activators of E. coli MazEF toxin-antitoxin RNase, primary screen, biochemical, fluorescence, uHTS; activation, % at 20 µM; Endoribonuclease toxin MazF (Escherichia coli (strain K12)), P0AE70; 350,000 tested, 0.32% active; FAM/BHQ RNA-DNA oligo cleavage fluorescence, 5 h; in the data active = activation above about 50%
Target sequence (P0AE70 whole entry, looked up): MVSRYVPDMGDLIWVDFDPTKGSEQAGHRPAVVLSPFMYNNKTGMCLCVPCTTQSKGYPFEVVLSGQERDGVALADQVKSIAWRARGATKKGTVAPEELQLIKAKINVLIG
Active calls of the source: *; i = inactive; x = no result given; & = joins results of further samples. An excerpt, so the mix of outcomes need not match the whole.

SMILES	PriA SSB inh	PfHsp40 rescue	DUSP3 inh	BH1578 lux ind	TcdB inh	Yp Topo-I inh	Rv3671c protease	MazEF act
CC1=C(C#N)C(=O)NC(=O)/C1=C/c1ccc(-c2ccc(S(N)(=O)=O)cc2)o1	6.0	-0.5	-7.7	i	-2.0	-12.3	3.0	6.4
Cc1ccc(C(C)C)cc2c(C)ccc1-2	20.3	-1.4	x	-0.4	1.0	-1.6	x	5.5
CC(C)C1(C)N=C(c2nc3ccccc3cc2C(=O)O)NC1=O (centres undefined)	-17.6	-0.2	7.9	i	x	-8.6	1.5	0.5
Cc1cnc(NS(=O)(=O)c2ccccc2)c(C)n1	-8.4	-0.4	10.0	i	-6.8	-11.8	-2.3	12.1
CNCC(=O)O	-5.8	2.1	x	0.5	0.5	-3.8	0.9	7.6
O=C(O)c1cccc(-c2ccc(/C=N/n3cnnc3)o2)c1	x	-1.4	11.4	-0.1	0.3	5.0	0.2	-4.6
CCOC(=O)c1cc2c(ccc3ccccc32)oc1=O	-22.1	7.1	22.2	i	1.4	2.1	-6.9	-1.8
NC(N)=NC(N)=NCCc1ccccc1	-7.6	-1.3&-1.4	16.3	i	0.4	0.0	1.4	-10.9
C[C@H]1O[C@H](O[C@H]2[C@H](O)[C@@H](O)[C@@H](O[C@H]3[C@H](O)[C@@H](O)C(O)O[C@@H]3CO)O[C@@H]2CO)[C@H](O)[C@@H](O)[C@@H]1N[C@H]1C=C(CO)[C@@H](O)[C@H](O)[C@H]1O (some centres undefined)	x	x	16.5	x	x	x	-3.2	x
O=C1O[C@@H](C(O)CO)C(O)=C1O (some centres undefined)	-3.8	x	x	x	x	x	x	x
CNC(=O)CSP(=S)(OC)OC	-8.6	-1.8	x	-0.5	-0.6	-6.6	x	-6.1
c1ccc(CNc2ncnc3ccccc23)cc1	-10.8	-0.3&0.2	-18.1&13.4	6.6	-0.5	3.0&-13.3	2.1&2.0	5.3&3.3
CC(=O)OCC(=O)[C@@]1(O)[C@H](C)C[C@H]2[C@@H]3CCC4=CC(=O)C=C[C@]4(C)[C@@]3(F)[C@@H](O)C[C@@]21C	1.6	0.6	-18.4	6.2	0.0	4.3	-2.8	8.0
O=C(O)c1cc(-c2ccncc2)nc2ccc(F)cc12	x	x	8.4	x	x	x	x	x
O=C(CCCN1CCN(c2ccccn2)CC1)c1ccc(F)cc1	-9.9	0.7	x	-0.4	0.3	2.2	6.2	-0.9
S=C1NCCN1	-2.2	0.2	4.7	0.2	0.4	2.4	-0.6	-1.0
CC(=O)N1CCN(C(c2ccccc2)c2ccccc2)CC1	x	-1.5	7.4	-0.3	0.4	3.8	1.1	-1.5
O=C1CC[C@@H](C(=O)O)N1	-2.8	-1.0	x	1.6	0.8	0.4	-0.3	7.4
CSc1nc2ccccc2s1	-7.3	-0.9	22.5	-0.5	1.4	2.3	-6.5	2.4
O=[N+]([O-])c1c(Cl)c(Cl)c(Cl)c(Cl)c1Cl	-1.2	-0.1	x	-0.2	-0.2	1.1	x	-3.5
Cc1ccc(CNC2=NCCS2)cc1	-10.4	0.0	13.3	-0.5	3.5	-8.7	5.5	5.9
CNC(=O)Oc1cccc2ccccc12	-12.2	-0.7	9.1	-0.2	2.8	-0.7	-0.3	-0.5
O=[N+]([O-])c1cc(S(=O)(=O)Nc2ccccc2)ccc1Nc1ccccc1	7.5&5.0	0.3	x	1.0	2.4	8.0	x	5.7
CC1OC(OC2CC(O)C3(CO)C4C(O)CC5(C)C(C6=CC(=O)OC6)CCC5(O)C4CCC3(O)C2)C(O)C(O)C1O (centres undefined)	-3.0	-2.5	x	-0.3	0.5	1.2	x	6.7
Cc1cc(=O)c2ccccc2[nH]1	4.9	-0.9	32.7	-0.3	x	5.3	-3.1	-7.6
New compounds follow
SMILES	PriA SSB inh	PfHsp40 rescue	DUSP3 inh	BH1578 lux ind	TcdB inh	Yp Topo-I inh	Rv3671c protease	MazEF act
Nc1cccc(O)c1	-12.0&10.1	-0.6	x	-0.4	0.6	-7.4	-6.5	45.5
CC[C@H]1OC(=O)[C@H](C)[C@@H](O[C@H]2C[C@@](C)(OC)[C@@H](O)[C@H](C)O2)[C@H](C)[C@@H](O[C@@H]2O[C@H](C)C[C@H](N(C)C)[C@H]2O)[C@](C)(O)C[C@@H](C)C(=NOCOCCOC)[C@H](C)[C@@H](O)[C@]1(C)O	-3.2	-1.0	17.3	-0.8	1.5	-6.8	-2.5	5.2
BrCCc1ccccc1	11.8	-0.6	x	-0.3	-0.4	1.5	-4.1	6.2
NC(N)=NS(=O)(=O)c1ccc(N)cc1	-10.9	-2.4	4.7	i	1.0	1.8	-3.5	-6.4
N#Cc1c(/N=C/c2ccc(-c3ccc(C(=O)O)c(Cl)c3)o2)sc2c1CCCC2	x	0.9	x	-0.9	1.2	6.2	7.9	0.3
CCOCN(C(=O)CCl)c1c(C)cccc1CC	-21.3	-0.8	x	-0.7	1.7	4.6	2.2	3.2
Cn1c(=O)c2[nH]cnc2n(C)c1=O	-4.4	0.1	-14.6	8.3	1.0	-4.6	5.5	3.5
O=C(O)Cc1cccc2ccccc12	5.0&8.7	-0.6	x	-0.1	-0.5	-2.5	-2.5	2.4
CC(C)(C)OC(=O)NC(Cc1ccccc1)C(=O)O (centres undefined)	-14.4	-0.6	-0.7	0.1	1.4	-8.8	2.7	17.0
O=C(O)c1cccc(-c2ccc(C=Nn3cnnc3)o2)c1	-4.1	x	x	x	x	x	x	x
CCC(=O)Nc1ccc(Cl)c(Cl)c1	-19.3	-0.6	x	-0.5	0.4	9.1	x	4.4
CN(C)CCCN1c2ccccc2CCc2ccc(Cl)cc21	-3.7	4.2	-14.6	i	1.3	5.1	3.5	20.9

Some of the entries above in a different format.
smiles,PriA SSB inh,PfHsp40 rescue,DUSP3 inh,BH1578 lux ind,TcdB inh,Yp Topo-I inh,Rv3671c protease,MazEF act
N#Cc1c(/N=C/c2ccc(-c3ccc(C(=O)O)c(Cl)c3)o2)sc2c1CCCC2,x,0.9,x,-0.9,1.2,6.2,7.9,0.3
CCOCN(C(=O)CCl)c1c(C)cccc1CC,-21.3,-0.8,x,-0.7,1.7,4.6,2.2,3.2
Cn1c(=O)c2[nH]cnc2n(C)c1=O,-4.4,0.1,-14.6,8.3,1.0,-4.6,5.5,3.5

Record cards (already shown). Values in the order: PriA SSB inh	PfHsp40 rescue	DUSP3 inh	BH1578 lux ind	TcdB inh	Yp Topo-I inh	Rv3671c protease	MazEF act
`NC(N)=NS(=O)(=O)c1ccc(N)cc1` is listed with -10.9	-2.4	4.7	i	1.0	1.8	-3.5	-6.4
`N#Cc1c(/N=C/c2ccc(-c3ccc(C(=O)O)c(Cl)c3)o2)sc2c1CCCC2` is listed with x	0.9	x	-0.9	1.2	6.2	7.9	0.3
`BrCCc1ccccc1` is listed with 11.8	-0.6	x	-0.3	-0.4	1.5	-4.1	6.2
`Nc1cccc(O)c1` is listed with -12.0&10.1	-0.6	x	-0.4	0.6	-7.4	-6.5	45.5
`CN(C)CCCN1c2ccccc2CCc2ccc(Cl)cc21` is listed with -3.7	4.2	-14.6	i	1.3	5.1	3.5	20.9

Compound activity: PubChem, several laboratories
